PKD1 kinase inh: inhibitors of human PKD1 kinase; inhibition, %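 (about 10 µM by stock and volumes)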; 0.056% of 200,000 active; Q15139; PKD1 kinase fluorescence polarization assay;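 active means inhibition of 50% or more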;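 further: controls were vehicle for no effect and a reference inhibitor for full effect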
Target sequence (Q15139 whole entry, looked up): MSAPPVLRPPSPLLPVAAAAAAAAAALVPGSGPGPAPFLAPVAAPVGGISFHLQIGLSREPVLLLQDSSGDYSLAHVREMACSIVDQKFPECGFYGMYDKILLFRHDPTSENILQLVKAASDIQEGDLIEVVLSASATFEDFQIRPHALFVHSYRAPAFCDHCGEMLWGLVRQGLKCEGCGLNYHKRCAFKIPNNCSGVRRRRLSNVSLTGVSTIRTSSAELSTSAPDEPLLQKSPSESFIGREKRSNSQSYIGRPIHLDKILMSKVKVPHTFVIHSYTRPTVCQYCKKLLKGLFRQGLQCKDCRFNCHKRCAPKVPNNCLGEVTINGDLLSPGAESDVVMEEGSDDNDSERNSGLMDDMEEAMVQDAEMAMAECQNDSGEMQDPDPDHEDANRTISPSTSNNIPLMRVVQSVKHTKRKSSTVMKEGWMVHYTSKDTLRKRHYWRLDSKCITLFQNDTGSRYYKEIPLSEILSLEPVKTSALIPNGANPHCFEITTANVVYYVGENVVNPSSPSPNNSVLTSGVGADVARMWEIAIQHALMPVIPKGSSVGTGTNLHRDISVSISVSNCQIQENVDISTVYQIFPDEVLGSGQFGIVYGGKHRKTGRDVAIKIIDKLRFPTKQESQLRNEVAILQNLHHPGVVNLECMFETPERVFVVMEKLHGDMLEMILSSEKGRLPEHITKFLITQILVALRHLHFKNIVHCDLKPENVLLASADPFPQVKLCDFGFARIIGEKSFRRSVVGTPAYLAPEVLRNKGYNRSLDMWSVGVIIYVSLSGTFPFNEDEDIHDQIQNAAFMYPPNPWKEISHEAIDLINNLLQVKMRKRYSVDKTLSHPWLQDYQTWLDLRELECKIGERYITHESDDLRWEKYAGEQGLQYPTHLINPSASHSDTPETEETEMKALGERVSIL
INS promoter inh: TRM-6 insulin promoter activity inhibition. TRM-6 cells (human fetal islet line), insulin promoter-eGFP reporter, imaging; reporter expression induced with tamoxifen. inhibition, % at 2 µM. 0.9% of 130,000 active. AID 1273;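 active means inhibition above the mean plus 3 SD, with well images judged a real hit on visual review, cut at about 60% in these data, passing the limit was not always enough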
GALR2 agonist: activates the human galanin receptor 2; activation, %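 (tested at 5 µM)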; AID 803; 0.48% of 140,000 active; GALR2-expressing cells, agonist activation read-out; O43603;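 active means above mean plus 3 SD of all compounds, about 5% in these data, not always enough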;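 further: 0% = vehicle buffer wells and 100% = reference agonist at full effect; tested in CHO reporter cells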
HSV replic up: increases HSV replication in cells; 0.005% of 220,000 active; maximum fold increase; HSV replication augmentation in cells, fold increase;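 active means peak rise of 1.5-fold or more in the series; tested in PC3 cells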;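 further: first round at 10 µM; read as green reporter fluorescence; hits show the peak of a series up to 25 µM; 1 = signal of infected wells without compound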
RGS16-Gao: regulators of human RGS16-Galphao interaction; binding response (% of control), % at 10 µM; 0.38% of 220,000 active; bead-based flow cytometry RGS16-Galphao binding, fluorescence; actives lie on both sides; O15492+P09471;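 active means below 25% or above 175%, edge rows of some plates excepted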;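 further: Galphao activated by GDP with aluminum fluoride before binding; 100% = wells without compound and 0% = beads without RGS; some results beyond the cut were filed as inactive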
INS promoter inh cell count: recorded beside INS promoter inh, whose call it bears; normalized cell count, %; measured here: cell count, toxicity; reference of the scale not given here;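 cells exposed to compound for 48 h; stained nuclei by imaging scaled within each plate; lower means fewer cells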
HSV replic up primary fold: second read-out of HSV replic up, no call of its own (marks repeat the call); fold increase; compound at 10 µM; measured here: primary screen fold increase 10 uM; tested in PC3 cells;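 GFP signal in the first replicate; 1 = infected wells without compound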
Active calls of the source: *; i = inactive; . = not tested or not shown.

Under each structure: INS promoter inh | INS promoter inh cell count | HSV replic up primary fold | HSV replic up | GALR2 agonist | RGS16-Gao | PKD1 kinase inh
> CCOC(=O)c1c(C)c(C(=O)NCc2ccccn2)c(C)n1C
→ . | . | 1.1 | i | -2.8 | 102.6 | 7.2
> COc1ccccc1N1CCN(S(=O)(=O)c2ccc3c(c2)n(C)c(=O)n3C)CC1
→ -114.8 | 98.3 | 0.96 | i | . | 100.4 | 1.9
> Cc1nnc(SC/C=C/c2ccccc2)n(N)c1=O
→ -88.9 | 93.2 | 0.85 | i | . | 113.3 | -3.3
> Cc1cc(=O)[nH]c(COc2ccccc2)n1
→ . | . | 1.12 | i | -2.6 | 117.9 | 3.7
> O=C(NCCCn1ccnc1)c1cc2c(ccc3ccccc32)o1
→ 50.0 | 144.8 | 0.75 | i | . | 107.2 | -4.4
> CCOC(=O)N1CCN(CC(=O)Nc2sc(CC)cc2C(=O)c2ccc(OC)cc2)CC1
→ . | . | 1.01 | i | . | 104.3 | .
> c1ccc(Cn2nnc3c(N4CCc5ccccc54)ncnc32)cc1
→ -2.8 | 235.8 | 0.93 | i | -0.8 | 93.2 | -3.4
> COc1cc(C)nc(N(Cc2ccccc2)S(=O)(=O)c2ccc(C)cc2)n1
→ . | . | 1.04 | i | . | 100.8 | .
> CC1(C)O[C@@H]2C[C@H]3[C@@H]4CCC5=CC(=O)C=C[C@]5(C)[C@@]4(F)[C@@H](O)C[C@]3(C)[C@]2(C(=O)CO)O1
→ -34.8 | 57.7 | 0.88 | i | 0.1 | . | 5.4
> CC(C)(O)C#Cc1ccc(C(=O)NC2CCCCC2)s1
→ . | . | 0.87 | i | . | 100.7 | 8.3
> NCCCC[C@@H](C(=O)N1CCNCC1)n1cc([C@@H](N)CO)nn1
→ . | . | 1 | i | . | 125.4 | 8.0
> O=C(CN1C(=O)/C(=C\c2cccc(F)c2)Oc2ccccc21)N1CCN(c2ccccn2)CC1
→ -21.1 | 149.0 | 0.9 | i | 0.1 | 102.8 | -10.9
> Cc1ccc(C(=O)n2nnc3ccccc32)cc1[N+](=O)[O-]
→ 40.0 | 118.2 | 0.99 | i | 0.6 | 106.0 | -12.3
> Cn1cnc([N+](=O)[O-])c1Oc1cccc2ccccc12
→ 56.0 | 85.7 | 0.59 | i | -1.7 | 100.8 | 0.1
> CC(=O)N1/C(=C/c2ccc(N(C)C)cc2)C(=O)c2ccccc21
→ 13.3 | 19.7 | 0.78 | i | . | 102.4 | -2.4
> CCCCN1C(=O)/C(=C/C=C2\Oc3ccccc3N2CC)SC1=S
→ . | . | 1.26 | i | . | 107.1 | 31.9
> N#Cc1c(Nc2ccccc2)c(C=NCCN2CCOCC2)c[nH]c1=O
→ 45.5 | 100.0 | 0.96 | i | -2.0 | 97.1 | 4.0
> CCOc1ccc(NC(=O)c2ccc(C#CC(C)(C)O)cc2)cc1
→ 18.5 | 158.0 | 0.92 | i | -2.6 | 104.1 | 7.9
> Cn1c(N)c(C(=O)COC(=O)c2ccc(S(=O)(=O)N3CCCCC3)cc2)c(=O)n(C)c1=O
→ . | . | 0.95 | i | . | 100.8 | 1.7
> CCCCCSc1nc2c(c(=O)[nH]c(=O)n2C)n1CC
→ . | . | 0.86 | i | 0.7 | . | 1.3
> Cc1ccccc1NC(=O)COC(=O)c1c[nH]c(=O)[nH]c1=O
→ . | . | 0.93 | i | . | 101.1 | -9.1
> O=C(NCc1ccc2c(c1)OCO2)C1CCN(c2ncccn2)CC1
→ . | . | 0.88 | i | -2.1 | 106.5 | -8.8
> CN1CCN(CP(=O)(N2CCOCC2)N2CCOCC2)CC1
→ . | . | 1.01 | i | -0.9 | 99.3 | 14.5
> O=C(NCC(=O)N(CC1CCCO1)C(C(=O)NC1CCCC1)c1ccc(F)cc1)c1ccco1 (stereo not drawn)
→ -24.2 | 102.2 | 1.03 | i | -2.0 | 100.1 | 9.8
> CCOC(=O)c1sc(=NC(=O)c2ccco2)n(C)c1C
→ -15.4 | 106.3 | . | . | . | 96.5 | -2.7
> COC(=O)C1=C(C)NC(C)=C(C(=O)OC)C1c1cn(-c2ccccc2)nc1-c1ccco1
→ . | . | 0.86 | i | 0.5 | 96.5 | -8.5
> Cc1cc(C)n2[nH]c(=O)c(N=Nc3ccccc3)c2n1
→ 3.3 | 146.8 | 0.93 | i | -1.4 | 102.1 | -2.3
> CCOC(=O)NC(=S)Nc1c(C)n(C)n(-c2ccccc2)c1=O
→ 0.0 | 103.7 | 1.04 | i | . | 99.2 | 7.7
> O=C(NCc1cc(Br)cc(Br)c1OC(=O)c1ccccc1[N+](=O)[O-])c1ccccc1
→ 43.8 | 123.3 | 0.92 | i | -1.2 | 97.8 | 2.9
> COCCNC(=O)NC(=O)CN1CCN(C(c2ccccc2)c2ccccc2)CC1
→ . | . | 1.04 | i | . | 101.8 | -0.3

Whole records, looked up by structure.
CCOC(=O)N1CCN(CC(=O)Nc2sc(CC)cc2C(=O)c2ccc(OC)cc2)CC1 as listed: INS promoter inh = .; INS promoter inh cell count = .; HSV replic up primary fold = 1.01; HSV replic up = i; GALR2 agonist = .; RGS16-Gao = 104.3; PKD1 kinase inh = .
Cn1c(N)c(C(=O)COC(=O)c2ccc(S(=O)(=O)N3CCCCC3)cc2)c(=O)n(C)c1=O as listed: INS promoter inh = .; INS promoter inh cell count = .; HSV replic up primary fold = 0.95; HSV replic up = i; GALR2 agonist = .; RGS16-Gao = 100.8; PKD1 kinase inh = 1.7

(list continues)
Under each structure: INS promoter inh | INS promoter inh cell count | HSV replic up primary fold | HSV replic up | GALR2 agonist | RGS16-Gao | PKD1 kinase inh
> COc1cc(C2C(C(=O)OCCC#N)=C(C)NC3=C2S(=O)(=O)c2ccccc23)cc(OC)c1OC (stereo not drawn)
→ . | . | 0.8 | i | 0.2 | 98.5 | 7.6
> CN(C)/C=N/C(=S)Nc1ccccc1F
→ -35.7 | 111.0 | 0.89 | i | -1.1 | 106.6 | 1.4
> COc1ccccc1N1CCN(C(=O)CSc2nc(C)c(Cc3ccccc3)c(=O)[nH]2)CC1
→ 23.5 | 97.8 | 1.08 | i | -1.8 | 103.6 | -10.8
> Cc1nc2ccccn2c1-c1nnco1
→ 23.1 | 75.2 | 0.84 | i | -1.4 | 104.1 | 3.2
> Cc1cc(/C=C(/C#N)C(=O)O)c(C)n1CCC(C)C
→ 32.4 | 113.7 | 0.98 | i | -2.0 | 98.7 | 6.6
> O=C(NCc1ccccc1)c1cc(-c2cccs2)on1
→ 6.7 | 127.7 | 0.88 | i | -2.3 | 104.2 | 26.2
> CON(C)c1nc(OCCNC(=O)OCc2ccc(Cl)cc2C)nc(N(C)C)n1
→ -44.4 | 111.5 | 0.91 | i | -0.7 | . | -10.0
> c1ccc(-c2cc(-c3nnc4sc(-c5ccccn5)nn34)[nH]n2)cc1
→ . | . | . | . | 0.6 | 86.9 | 4.8
> N=c1nc(N)nc2n1NC(c1ccc(F)cc1)=CS2
→ 39.1 | 97.5 | 0.69 | i | -0.7 | 100.8 | -5.8
> CC1(C)C(=O)C2(C(=O)NCc3ccccc3)CCC1C2 (stereo not drawn)
→ 13.3 | 120.6 | 1.03 | i | -0.8 | 100.7 | -4.7
> Cc1ccccc1NC(=O)c1cccc(C(F)(F)F)c1
→ 9.4 | 125.9 | 0.79 | i | -1.5 | 99.4 | -2.9
> CCOC(=O)c1cc2n(n1)C(C(F)(F)C(F)(F)F)CC(C)N2 (stereo not drawn)
→ 19.4 | 291.2 | 0.85 | i | -2.4 | 102.1 | -3.7
> O=C1ON=C(c2cccc([N+](=O)[O-])c2)/C1=C/c1ccc(O)cc1
→ -33.3 | 42.2 | 1.02 | i | . | 96.8 | -4.6
> Cc1cc(NC(=O)CN2C(=O)S/C(=C\c3ccccc3)C2=O)no1
→ 35.3 | 67.2 | 0.94 | i | -0.7 | 100.0 | -3.2
> C=CCOC(=O)C1=C(C)NC(SCC(N)=O)=C(C#N)C1c1cccs1 (stereo not drawn)
→ 57.1 | 95.5 | 0.97 | i | -0.8 | 103.6 | -12.3
> O=C(CCS(=O)(=O)Cc1ccc(Cl)cc1)NCCCN1CCN(c2ccccc2F)CC1
→ -36.1 | 44.5 | 0.83 | i | -1.6 | 104.4 | 1.2
> CCn1c(CCNC(=O)c2ccc(OC)cc2)nnc1SCc1ccc(Cl)c(Cl)c1
→ -10.7 | 103.5 | 0.89 | i | -0.2 | 102.7 | -6.3
> CCn1nc(C)c(/C=C2\CCCC3=C2OC(N)=C(C#N)C3c2c(C)nn(CC)c2C)c1C (stereo not drawn)
→ . | . | 1.15 | i | -0.7 | 92.7 | 0.7
> Cc1cccc(-[n+]2c(C)cc(C)c3c(=O)[nH]c(=O)[nH]c32)c1
→ . | . | 1.23 | i | 0.2 | 104.0 | -0.2
> Cc1cc(C)n2nc(SCC(=O)N/N=C/c3ccc(F)cc3)nc2n1
→ . | . | 1.06 | i | -2.3 | 107.6 | -5.7
> C/C(=N\NC(=O)CSCc1ccccc1Cl)c1cccc(NC(=O)c2ccccc2)c1
→ -66.7 | 75.4 | 0.9 | i | -2.9 | 99.6 | 0.7
> Cc1cccc(N/C(N)=N/c2nc(C(F)(F)F)cc(C(F)(F)F)n2)c1
→ -123.5 | 87.2 | 0.93 | i | . | 103.3 | 0.2
> O=C1CN(C(=O)CNCc2ccccc2Cl)c2ccccc2N1
→ . | . | 1.05 | i | . | 98.8 | .
> COCCSc1nc2sc3c(c2c(=O)n1-c1ccccc1)CCN(C)C3
→ 27.6 | 116.0 | 0.95 | i | -0.5 | 101.2 | -2.1
> Cc1ccc(CN2C(=O)CSC2c2cccnc2)cc1 (stereo not drawn)
→ . | . | 0.86 | i | . | 105.0 | .
> CCOc1cc(S(=O)(=O)Nc2ccccc2CC)ccc1Cl
→ 28.6 | 88.0 | 0.99 | i | -3.9 | 94.8 | -3.1
> O=C(N/N=C/c1ccncc1)c1cc2c(ccc3ccccc32)o1
→ . | . | . | . | -1.2 | 98.3 | -13.0
> COc1cccc(N2CCN(C(=O)CCNS(=O)(=O)c3ccc4c(c3)c(=O)n(C)c(=O)n4C)CC2)c1
→ -64.3 | 124.3 | 1.02 | i | . | 102.0 | -4.6
> CC(=O)N1N=C(c2ccccc2OC(=O)/C=C/c2ccccc2)CC1c1ccccc1 (stereo not drawn)
→ . | . | 1.12 | i | . | 97.7 | .
> C=C(C)Cn1c(-c2ccccc2)nc2ccccc21
→ . | . | 1.21 | i | -2.0 | 104.2 | -8.2
> COc1ccc(NC(=O)Cn2nnc3ccccc32)c([N+](=O)[O-])c1
→ . | . | 0.87 | i | . | 104.3 | -3.4
> Cc1nc(NS(=O)(=O)c2ccc(Br)cc2)c2c3c(sc2n1)CCC3
→ -53.9 | 48.2 | 0.94 | i | -0.1 | 104.6 | -9.5
> CCOc1ccc2nc(NC3=NC(C)(C)C=C(C)N3)nc(C)c2c1
→ . | . | 0.75 | i | -0.9 | 105.5 | -0.6
> COc1ccc(S(=O)(=O)NCCSc2ccc(C)cc2)cc1OC
→ -27.3 | 100.2 | 0.86 | i | -1.7 | 99.8 | -13.6
> O=C1CCCN1c1ccc(S(=O)(=O)N2CCCCC2)cc1[N+](=O)[O-]
→ . | . | 0.99 | i | . | 98.1 | -6.8
> Cc1cc(NC(=O)c2ccc3c(c2)C(=O)N(Cc2ccccc2)C3=O)no1
→ 21.4 | 102.4 | 0.68 | i | . | 98.9 | -2.9
> CCN(c1ccccc1)S(=O)(=O)c1ccc(F)c(C(=O)O)c1
→ -19.2 | 67.5 | 1.25 | i | -0.7 | 98.1 | -4.9
> O=C(COC(=O)C1CCC1)Nc1ccc(OC(F)F)cc1
→ . | . | . | . | -1.1 | 101.9 | 0.9
> CN(C)c1nc(N(C)C)n(C(=O)c2cccs2)n1
→ . | . | 0.9 | i | . | 101.2 | -1.9
> C[C@@H]1CC=C[C@H]2[C@H]1C(=O)N(Cc1ccccc1)[C@H]2c1ccc(-c2ccoc2)cc1F
→ . | . | 0.63 | i | . | 97.1 | .
> O=[N+]([O-])c1cccc(-c2nc(-c3ccccc3)no2)c1
→ -128.6 | 98.0 | 0.99 | i | . | 111.7 | -0.2

Nothing new here: an excerpt of the list.
Under each structure: INS promoter inh | INS promoter inh cell count | HSV replic up primary fold | HSV replic up | GALR2 agonist | RGS16-Gao | PKD1 kinase inh
> O=C(NCCCn1ccnc1)c1cc2c(ccc3ccccc32)o1
→ 50.0 | 144.8 | 0.75 | i | . | 107.2 | -4.4
> CCOC(=O)N1CCN(CC(=O)Nc2sc(CC)cc2C(=O)c2ccc(OC)cc2)CC1
→ . | . | 1.01 | i | . | 104.3 | .
> c1ccc(Cn2nnc3c(N4CCc5ccccc54)ncnc32)cc1
→ -2.8 | 235.8 | 0.93 | i | -0.8 | 93.2 | -3.4
> COc1cc(C)nc(N(Cc2ccccc2)S(=O)(=O)c2ccc(C)cc2)n1
→ . | . | 1.04 | i | . | 100.8 | .
